N370S GC mod – qHTS Assay for Inhibitors and Activators of N370S glucocerebrosidase as a Potential Chaperone Treatment of Gaucher Disease | Lysosomal acid glucosylceramidase (Homo sapiens), P04062 | Potency, µM (series often up to 59.4 µM), without a hit: at the top dose activity change, negative = inhibition, usual class: inhibitors | hit rate 0.092% among 330,000 | N370S GC spleen homogenate, 4MU-glucoside fluorescence;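 note: 0% = full enzyme activity and -100% = no enzyme basal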
FEN1 inh – qHTS Assay for the Inhibitors of Human Flap endonuclease 1 (FEN1); P39748; Recombinant FEN1 flap cleavage, fluorescence, 15 min; Potency, µM (series often up to 114 µM), inactives show at the highest dose activity change, negative = inhibition, hits mostly inhibitors; hit rate 0.35% among 390,000; AID 588795, 2011; note: nearly all actives have a fitted effect of over 65% in size
Target sequence (P39748 whole entry, looked up): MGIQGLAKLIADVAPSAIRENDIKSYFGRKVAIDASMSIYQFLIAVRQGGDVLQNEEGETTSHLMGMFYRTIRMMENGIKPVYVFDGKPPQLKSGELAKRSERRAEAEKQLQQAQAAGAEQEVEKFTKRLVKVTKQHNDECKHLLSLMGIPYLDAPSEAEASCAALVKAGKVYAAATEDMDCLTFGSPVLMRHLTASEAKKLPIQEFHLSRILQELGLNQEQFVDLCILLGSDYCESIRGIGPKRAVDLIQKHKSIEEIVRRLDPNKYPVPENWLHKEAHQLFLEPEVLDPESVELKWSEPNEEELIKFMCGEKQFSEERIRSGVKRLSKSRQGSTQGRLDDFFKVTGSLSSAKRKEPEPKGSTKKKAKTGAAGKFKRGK
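Compounds are tested as a concentration series against 10 nM FEN1; after a 15 min room-temperature preincubation, 50 nM substrate starts cleavage, with plate reads at 0 and 15 min. Normalized responses are fitted by a Hill equation.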
An asterisk follows results filed as active; ? = inconclusive; / = no result given; & = joins results of further samples; [ ] = dose if it differs, or a comment. Calls come from the whole dose curve; as a rule, active = well fitted curve in the direction sought with a large enough effect; inconclusive = small, poorly fitted or top-dose-only effect, or another doubt; inactive = no such curve, though single readings can be large; an effect the other way counts as inactive or inconclusive. Unless noted, % is set by controls: 0 for no effect and ±100 for the full control effect; potency is the fitted concentration of half-maximal effect.

SMILES	N370S GC mod	FEN1 inh
N#Cc1ccc(CN2CC[C@@]3(CCCN(C(=O)c4cnccn4)C3)C2)cc1	-2%	/
Cc1cc(C)c2c(c1)cc(C)c1nnc(SCC(=O)Nc3cc(C)on3)n12	3%[2.35 µM]	0%
CCN1CCN(C(=O)c2ccc(Cl)c(S(=O)(=O)N3CCCCCC3)c2)CC1	-7%	3%
COc1ccc2c(c1)O[C@H](c1ccc3c(c1)OCO3)[C@@H](OC(=O)Nc1cc(OC)c(OC)c(OC)c1)C2=O	-6%&-7%	/
CCCN1C(=O)c2cc(C(=O)Nc3ccccc3CC)ccc2C1O (stereo not drawn)	-26%	-2%
Cc1onc(C(=O)Nc2cccnc2Cl)c1[N+](=O)[O-]	7%	4%
O=C(COC(=O)COc1ccccc1)NC1CCS(=O)(=O)C1 (stereo not drawn)	/	1%
COc1ccccc1N1CCN(C(=O)CCc2ccc(S(=O)(=O)NC(C)C)cc2)CC1	-16%	4%
Cc1nn(-c2ccccc2)c2nc(Cl)c(C(=O)O)cc12	-4%	-3%
Cc1cc(C)c(C(=O)NNC(=O)c2cccnc2)c(C)c1	0%	-8%
CC(C)CN(C(=O)CCNC(=O)c1ccc(Cl)cc1)c1c(N)n(CC(C)C)c(=O)[nH]c1=O	/	-4%
CC(=O)Nc1ccc(-c2nc3ccccc3o2)cc1	6%	4%
COc1ccccc1OCC(=O)Nc1ccc(S(=O)(=O)Nc2nc(C)cc(C)n2)cc1	5%	3%
O=C(Nc1ccc2[nH]c(=O)[nH]c2c1)c1cccc([N+](=O)[O-])c1	0%	-6%
O=C(CSc1ncccn1)N1CCCc2ccccc21	22%	5%
CCN1C(=O)[C@H]2[C@@H](c3ccc(-c4ccc(OC)cc4)c(OC)c3)N3CCCC[C@@]3(C(=O)OC)[C@H]2C1=O	-2%	-8%
CCOC(=O)CN1C(=O)S/C(=C/c2cc(C)n(-c3ccccn3)c2C)C1=O	7%	-13%
COc1ccccc1NC(=O)CSc1nncn1-c1ccccc1	7%	-2%
O=S(=O)(c1ccc(Cl)c(NC(=S)N/N=C/c2ccc(O)cc2)c1)N1CCOCC1	-16%	1%
O=Cc1cn(-c2ccccc2)nc1-c1cc2cc(O)ccc2oc1=O	?	-7%
COc1ccc(N(CC(=O)N2CCc3ccccc3C2)S(C)(=O)=O)cc1Cl	0%	1%
CCCn1nc(NC(=O)c2cccs2)c2cc3ccc(C)cc3nc21	?	-25%
O=C(NCc1ccc(F)cc1)C1CCN(S(=O)(=O)c2cccnc2)CC1	-4%	-10%
C[C@]12CCC(=O)C=C1CC[C@@H]1[C@@H]2[C@@H](O)C[C@@]2(C)[C@H]1CC[C@]2(O)C(=O)COC(=O)CCC(=O)O	18%&6%&-3%	1%&-7%
O=S(=O)(NCCSc1nnc(-c2ccco2)n1-c1ccccc1)c1ccccc1	0%	2%
SMILES	N370S GC mod	FEN1 inh
N#CC(C#N)=C1NC(N)=C(C#N)C(c2ccccc2)=C1C#N	-4%	/
CC1(C)Cc2c(sc3[nH]c(=S)n(Cc4ccco4)c(=O)c23)CO1	0%	-15%
CCCSc1nsc(NC(=O)Nc2ccc(F)cc2F)n1	6%	-1%
O=C(NCCS(=O)(=O)NCc1ccccc1Cl)c1ccccc1	0%	4%
CS(C)(=O)=NS(=O)(=O)c1ccc(Cl)cc1	8%	-7%
Cn1cc([C@@H]2C[C@H]3CN(Cc4cccc(Cl)c4)C(=O)[C@]34CCCN24)c(-c2ccccc2)n1	20%	0%
COc1cccc(CNC(=O)C2=C(C)C(=O)OC23CCCCCC3)c1	/	12%
CCCN(CCC)C(=S)Nc1cc(C(=O)OC)ccc1C(=O)OC	?	3%
O=C(CCCn1c(=O)oc2ccccc21)N1CCN(c2ccccn2)CC1	0%	3%
O=C(CN1C(=O)S/C(=C\c2ccccc2)C1=O)Nc1cc([N+](=O)[O-])ccc1O	2%	1%
O=C(NCc1ccccc1)C(c1ccncc1)N(C(=O)c1csnn1)c1ccccc1F (stereo not drawn)	-5%	34%[activator]
CN(CC(=O)Nc1ccc(N2CCOCC2)cc1)C(=O)CSc1ccc(Br)cc1	-8%	-1%
S=C1NC2(CCCCC2)Nc2ccccc21	-11%	0%
Cc1cc(NCCN2CCOCC2)n2ncc(-c3ccccc3)c2n1	-4%	-13%
CC1CCCC(C)N1C(=O)COC(=O)CSc1ccc(C(N)=O)cc1[N+](=O)[O-] (stereo not drawn)	-2%	-11%
O=C(Cn1nc(C(F)F)cc1C(F)F)NNC(=S)Nc1ccc(F)cc1	2%	-8%
O=C(O)CCNc1cc2ccccc2cc1C(=O)O	10%	15%
COc1cc(OC)c(S(=O)(=O)Nc2ccccc2NC(=O)CN2CCOCC2)cc1NC(C)=O	6%	-5%
Cc1ccc2nc3sc(C(=O)Nc4ccc(F)cc4)cc3cc2c1	-8%	-13%&-22%
CN1CCN(c2nc(C(N)=O)cc(-c3ccccc3)n2)CC1	-1%	-2%
CCSc1nnc(NC(=O)C2CCCCC2)s1	22%	-2%
Cn1cc(S(=O)(=O)NC2CCCCC2)c(=O)n(C)c1=O	-3%	0%
FC(F)(F)c1ccccc1-c1nc(NC2CCNCC2)c2ccccc2n1	-15%	/
CN(C)c1ccc(NC(=O)C2C3C=CC(C3)C2C(=O)O)cc1 (stereo not drawn)	-11%	5%
COc1ccccc1-c1noc(-c2ccncc2)n1	6%	1%
SMILES	N370S GC mod	FEN1 inh
O=C(CN1CCN(c2ccccn2)CC1)Nc1cccc(S(=O)(=O)N2CCOCC2)c1	-19%	-9%
Cc1noc(C)c1COC(=O)C1(c2cccc(F)c2)CCCC1	5%[2.35 µM]	-13%
O=C(Cn1nnc2ccccc21)NCc1ccccc1	10%	7%
CCCCCOCC1CC(C/C(C)=N/Nc2nc(-c3ccccc3)cs2)C(=O)O1 (stereo not drawn)	-10%	-1%
CCC1CCCCN1CCCNC(=O)Cn1cnc2sc(C)c(S(=O)(=O)N3CCC(C)CC3)c2c1=O (stereo not drawn)	-7%	10%
CC(C)OC(=O)COc1cc(O)c2c(=O)cc(-c3ccccc3)oc2c1	17%	-7%
CN(C)CCOC(c1ccccc1)c1ccccc1	-20%	-10%&1%
CCOC(=O)Cc1sc(N)nc1C	5%	-8%
COc1ccc(-c2nc(C)c(CCNC(=O)c3cccs3)s2)cc1	/	-20%
COc1ccc(C)c2sc(NC(=O)c3ccc(S(=O)(=O)N4CCCCC4)cc3)nc12	/	-6%
O=C1COc2ccc(C(=O)c3ccccc3C(=O)NCc3ccco3)cc2N1	-3%	2%
Cc1ccc(-c2cc(C(=O)N/N=C/C=C/c3ccccc3)n[nH]2)s1	-2%	10%
Cc1c(NC(=O)C23CC4CC(CC(Br)(C4)C2)C3)c(=O)n(-c2ccccc2)n1C	-5%	8%
O=C1c2ccccc2C2(c3ccccc3)NCCCN12 (stereo not drawn)	18%	4%
CC(C)(C)c1ccc(OCC(=O)Nc2ccc3c4c(cccc24)C(=O)NC3=O)cc1	-16%	-19%
COC(=O)Cn1c(=O)c2cccn2c2cccnc21	/	9%
COc1ccc(S(=O)(=O)N2CCN(C(=O)CCNC(=O)c3ccccc3Cl)CC2)cc1	/	-2%
CCCCn1c(SCC(=O)Nc2cc(C)on2)nnc1-c1cccnc1	2%	-8%
Cc1ccc(C(=O)Nc2ccc(C(=O)N/N=C/c3ccccn3)cc2)cc1	-25%	1%
COCCN(C(=O)COC(=O)Cc1c[nH]c2ccccc12)c1c(N)n(Cc2ccccc2)c(=O)[nH]c1=O	-7%	7%
COc1ccc(C2CC(=O)c3c(C)nc(N4CCN(Cc5ccccc5)CC4)nc3C2)cc1OC (stereo not drawn)	-18%	-13%
NCCSSCCN	3%&16%&-6%	17%
COc1ccc(CN2C(=O)c3cccnc3C2=O)cc1S(=O)(=O)N1CCCCC1C (stereo not drawn)	-12%	19%
CC(=O)c1cn(CC(=O)Nc2ccc(C)cc2C)c2ccccc12	9%	6%
COc1ccc(CC(=O)NCCS(=O)(=O)N2CCN(c3ccccc3)CC2)cc1OC	-2%	12%

Given in markdown: part of the list above
| structure | N370S GC mod | FEN1 inh |
| --- | --- | --- |
| CCCCn1c(SCC(=O)Nc2cc(C)on2)nnc1-c1cccnc1 | 2% | -8% |
| Cc1ccc(C(=O)Nc2ccc(C(=O)N/N=C/c3ccccn3)cc2)cc1 | -25% | 1% |
| COCCN(C(=O)COC(=O)Cc1c[nH]c2ccccc12)c1c(N)n(Cc2ccccc2)c(=O)[nH]c1=O | -7% | 7% |
| COc1ccc(C2CC(=O)c3c(C)nc(N4CCN(Cc5ccccc5)CC4)nc3C2)cc1OC (stereo not drawn) | -18% | -13% |

Of the compounds above, 9 have an aryl thioether with sulfur outside any ring:
SMILES	N370S GC mod	FEN1 inh
Cc1cc(C)c2c(c1)cc(C)c1nnc(SCC(=O)Nc3cc(C)on3)n12	3%[2.35 µM]	0%
O=C(CSc1ncccn1)N1CCCc2ccccc21	22%	5%
COc1ccccc1NC(=O)CSc1nncn1-c1ccccc1	7%	-2%
O=S(=O)(NCCSc1nnc(-c2ccco2)n1-c1ccccc1)c1ccccc1	0%	2%
CCCSc1nsc(NC(=O)Nc2ccc(F)cc2F)n1	6%	-1%
CN(CC(=O)Nc1ccc(N2CCOCC2)cc1)C(=O)CSc1ccc(Br)cc1	-8%	-1%
CC1CCCC(C)N1C(=O)COC(=O)CSc1ccc(C(N)=O)cc1[N+](=O)[O-] (stereo not drawn)	-2%	-11%
CCSc1nnc(NC(=O)C2CCCCC2)s1	22%	-2%
CCCCn1c(SCC(=O)Nc2cc(C)on2)nnc1-c1cccnc1	2%	-8%

Continued.
SMILES	N370S GC mod	FEN1 inh
Cc1ccc(C)c(OCC(=O)NC(Cc2c[nH]c3ccccc23)C(=O)O)c1 (stereo not drawn)	7%	-8%
O=S(=O)(N/N=C/c1cccc(OC2CSC2)c1)c1ccccc1	6%	-1%
NC(=O)C(c1ccc(Cl)cc1)c1ccc(Sc2ccccc2)nn1 (stereo not drawn)	10%	-7%
NC(=S)N/N=C1\CC(n2nnnc2-c2ccccc2Cl)C2COC1O2 (stereo not drawn)	-5%	6%
CCC(Sc1nc2ccccc2c2nc3ccccc3n12)C(=O)NCc1ccco1 (stereo not drawn)	3%	/
O=C(NCCc1ccccn1)C(F)(F)C(F)(F)C(F)(F)C(F)(F)C(F)(F)C(F)(F)C(F)(F)C(F)F	15%	?
COCn1c(COc2ccccc2)nc2ccccc21	8%	-11%
COc1ccc(Cl)cc1N1C(=O)CC(Sc2ccccc2N)C1=O (stereo not drawn)	-7%	-2%
CCOc1ccc(Cc2noc3c2C(=O)CC(C)(C)C3)cc1OCC	-4%	10%
CCCOC(=O)c1ccc(NC(=O)C2C3CCC(C3)C2C(=O)O)cc1 (stereo not drawn)	11%	-4%
Cc1cc(NC(=O)C(C)SCC(=O)Nc2ccccc2OC(F)F)no1 (stereo not drawn)	-12%	1%
O=S(=O)(c1cccc2cccnc12)N1CCN(c2ccc(F)cc2)CC1	-2%	10%
Cc1cc(C)n(-c2nc3ccccc3c3nc(C)nn23)n1	-23%	19%
Cc1ccc(C)c(NC(=O)COC(=O)CNC(=O)C2CCCCC2)c1	/	-12%
O=c1cnn(Cc2ccc(F)cc2)c2ccccc12	-10%	-3%
CCSc1nnc(NC(=O)CCc2ccccc2)s1	5%	7%
CC(C)c1csc(CN2CCC(CCC(=O)NCC3CCCO3)CC2)n1 (stereo not drawn)	-8%	4%
COc1ccc(/C=N/Nc2nc3ccccc3[nH]2)cc1OC	-14%	-19%
O=C(CSc1nnnn1-c1ccc(O)cc1)NC1CCCCC1	-2%	12%
COc1ccc(CCNC(=O)Cn2nc(C)n3c(cc4occc43)c2=O)cc1OC	/	8%
COc1ccc(S(=O)(=O)NNC(=O)c2ccccc2-n2cccc2)cc1	9%	0%
Cc1cccc(NC(=O)CCc2ccc(S(=O)(=O)NC3CCCCC3)cc2)c1	9%	0%
CCN(CC(O)c1cccc(O)c1)C(=O)C12CC3CC(CC(C3)C1)C2 (stereo not drawn)	-12%	?
O=C(O)c1cc(O)c2c(c1)C(=O)c1cccc(O)c1C2=O	12%&-19%&10%	?
COc1ccc(CNC(=S)N2CCN(Cc3ccccc3)CC2)cc1	-2%	8%
SMILES	N370S GC mod	FEN1 inh
COc1ccc(NC2CCCN(C(=O)CCc3cn[nH]c3)C2)cc1 (stereo not drawn)	-3%	-11%
CC(=NNC(=O)CCC(=O)Nc1ccccc1Cl)c1ccco1	/	10%
COc1cc(C(=O)Nc2nc(N)n(-c3ccccc3)n2)cc(OC)c1OC	-3%	7%
O=C(CC12CC3CC(CC(C3)C1)C2)NCC(c1ccc(F)cc1)N1CCOCC1 (stereo not drawn)	?	-17%
COc1cc2ncnc(Nc3ccc(F)c(Cl)c3)c2cc1OCCCN1CCOCC1	-1%	/
CCn1cc([N+](=O)[O-])nc1C	-2%	9%
Cc1cc(CN(C)Cc2ccc(OCC(O)CN(C)Cc3ccccc3)cc2)on1 (stereo not drawn)	-6%	-14%
COC(=O)N1CCN(c2ccc(C)cc2)C(C)C1 (stereo not drawn)	6%	-12%
CCOC(=O)c1ccc(S(=O)(=O)N2CCN(C(=O)c3nn(C)c(=O)c4ccccc34)CC2)cc1	1%	-9%
CC(=O)c1c(C)[nH]c(C(=O)COC(=O)CCNS(=O)(=O)c2ccc(C)c(C)c2)c1C	/	-4%
O=C(/C=C/c1ccccc1[N+](=O)[O-])NCCCn1ccnc1	2%	35%

This is a subset, and most or all hits are left out here.
